Compound activity deposited in PubChem by several laboratories.
Mtb betalactam – beta-lactam sensitization of Mtb H37Rv, H37Rv. M. tuberculosis H37Rv growth with meropenem, percent inhibition; hits of this screen are not shown here. inhibition, % at 25 µM. actives 0.27% (n = 330,000). AID 434955, 2010;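 active = about 74% or more and at least 40 points above the plate without the antibiotic, then above 30% in a dose series; inconclusive = first-round hits that could not be retested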;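 note: growth measured after seven days incubation then overnight dye step; 0% = bacteria only wells and 100% = bacteria with antibiotic; twin plates without the antibiotic show which effects depend on it; some results filed as inactive read as strong as hits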
YopH inh – YopH tyrosine phosphatase inhibitors, primary screen, biochemical, fluorescence Ex485/Em525; inhibition, %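 (about 10 µM by stock and volumes)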; actives 0.16% (n = 140,000); AID 898, 2007;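 active = inhibition of 50% or more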;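 note: controls were vehicle for no effect and minimum signal wells for full effect; inactives centre near -20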
Arbovirus anti – antivirals against arbovirus infection, primary screen, cell-based, full library, 10K replicate subset | arbovirus infection cell-based antiviral screen | inhibition, % at 10 µM | actives 0.37% (n = 200,000);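 active = inhibition from about 30%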;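 note: bluetongue infection of BSR cells; cell survival read as ATP light after 72 h; 0% = infected wells without compound and 100% = uninfected wells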
RecA splice inh – Mtb RecA intein splicing inhibitors, primary screen, biochemical, fluorescence, HTS | Protein RecA (Mycobacterium tuberculosis (strain ATCC 25618 / H37Rv)), P9WHJ3 | cell-free RecA intein splicing | inhibition, %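 (about 9 µM by stock and volumes)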 | actives 0.75% (n = 290,000) | AID 2221, 2009; in the data active = inhibition above about 30%; inconclusive = no clear call, values can overlap the other calls;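 note: 0% = vehicle wells and 100% = reference inhibitor control wells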
Target sequence (P9WHJ3 whole entry, looked up, canonical isoform): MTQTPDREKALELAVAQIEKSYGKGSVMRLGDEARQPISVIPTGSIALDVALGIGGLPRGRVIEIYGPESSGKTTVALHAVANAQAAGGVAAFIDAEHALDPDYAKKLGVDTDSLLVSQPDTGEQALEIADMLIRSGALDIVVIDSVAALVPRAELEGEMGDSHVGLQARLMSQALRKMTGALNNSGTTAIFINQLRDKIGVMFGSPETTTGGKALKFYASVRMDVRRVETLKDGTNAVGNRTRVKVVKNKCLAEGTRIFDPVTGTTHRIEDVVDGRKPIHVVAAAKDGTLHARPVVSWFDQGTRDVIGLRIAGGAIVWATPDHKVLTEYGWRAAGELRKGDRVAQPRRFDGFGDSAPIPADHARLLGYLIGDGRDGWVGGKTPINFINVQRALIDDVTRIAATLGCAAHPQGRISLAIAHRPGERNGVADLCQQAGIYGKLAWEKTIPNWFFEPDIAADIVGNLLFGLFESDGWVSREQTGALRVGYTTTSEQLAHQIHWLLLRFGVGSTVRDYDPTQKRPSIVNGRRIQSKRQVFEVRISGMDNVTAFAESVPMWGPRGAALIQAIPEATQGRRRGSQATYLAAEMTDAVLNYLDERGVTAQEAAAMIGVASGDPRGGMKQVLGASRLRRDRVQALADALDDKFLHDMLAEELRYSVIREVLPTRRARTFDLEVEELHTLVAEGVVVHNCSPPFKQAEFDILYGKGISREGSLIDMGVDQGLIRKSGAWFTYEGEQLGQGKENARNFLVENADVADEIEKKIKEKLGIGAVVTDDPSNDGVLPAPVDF
Mtb H37Rv – M. tuberculosis H37Rv growth inhibitors, H37Rv strain (AID 1626); M. tuberculosis H37Rv growth inhibition; higher % means a stronger effect; actives 0.95% (n = 220,000); inhibition, % at 10 µM; hits with a dose series show IC50 in µM;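 active = confirmed in a dose series; inconclusive = inhibition above 80% but not taken into the dose series; inactive = below 80% or under 30% at every dose of the series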;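 note: bacteria incubated seven days before Alamar blue readout; 0% = bacteria only wells and 100% = bacteria with antibiotic wells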
Arbovirus anti repeat – further read-out of Arbovirus anti, marked with its call; inhibition, %; measured here: 10K subset replicate screen; many hits read low in the repeat;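 first of two repeat runs on a subset; 0% = infected and 100% = uninfected wells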
The depositor's hits bear a star; ? = inconclusive; / = no result given. Some of the compounds tested; the hit share may differ from the screen's.

SMILES | Mtb betalactam | YopH inh | Arbovirus anti | RecA splice inh | Mtb H37Rv | others
O=S(=O)(c1cc(Cl)ccc1Cl)N1CCN2CCCC2C1 (stereo unspecified) | -7.5 | / | / | 1.9 | /
C/C(=N\NC(N)=O)c1cccc(Cl)c1 | -4.2 | -29.1 | 0.7 | -2.3 | 5.8%
Cc1ccc([N+](=O)[O-])cc1NC(=S)NC(=O)CC(C)(C)C | 41.3 | -30.4 | 8.9 | 0.9 | 11.7%
COc1ccc(CCNC(=O)c2sc3cc(C)ccc3c2Cl)cc1 | 16.9 | 6.5 | 1.4 | 0.7 | 1.0%
Cc1cc(-c2nc3c4c5c(sc4[nH]c(=O)n3n2)CCC5)c(C)o1 | 0.6 | -1.0 | 24.8 | 8.3 | -10.4%
O=C1/C(=C/c2cccs2)SC(=S)N1CC(=O)N1CCCCC1CCO (stereo unspecified) | 8.5 | / | / | 19.4 | /
Cc1cccc(Nc2nc(N)nc(CCl)n2)c1C | 99.7 | / | / | 6.9 | 76.6%
O=C(CN1CCN(Cc2ccc3c(c2)OCO3)CC1)Nc1cc(S(=O)(=O)N2CCCC2)ccc1Cl | 22.1 | / | -8.7 | 2.3 | 9.7%
O=C(O)CN1C(=O)C(=O)N(Cc2ccc(Cl)c(Cl)c2)C1=O | -0.5 | / | / | 3.2 | /
CC1(C)C=C(c2ccc(C(=O)O)s2)CC(C)(C)N1 | -0.8 | -13.5 | 17.3 | 0.6 | 1.2%
C=CCn1c(SCC(=O)N2CC(=O)Nc3ccccc32)nc2scc(-c3cccs3)c2c1=O | 0.6 | -32.0 | -23.2 | 0.9 | 4.0%
COCC(=O)Nc1ccc2c(c1)OCC(=O)N2Cc1ccccc1F | 3.2 | / | / | -0.2 | /
COc1ccc2cc(CN(CC3CCCO3)C(=O)Nc3ccccc3)c(=O)[nH]c2c1 (stereo unspecified) | -1.8 | / | -1.7 | -2.5 | -6.6%
CCOC(=O)C1=C(C)Nc2ncnn2C1c1cccnc1 (stereo unspecified) | 0.5 | 4.4 | 2.1 | 1.0 | -4.3%
Cc1cccc(Nc2ncnc3ccc(Br)cc23)c1 | 7.2 | / | 13.7 | 1.0 | -0.5%
CC1(C)CC(=O)N(c2ccc(C#N)cc2)C(=O)C1 | -4.0 | / | / | -0.8 | /
Cc1cccc(CN(CC(=O)N/N=C/c2ccco2)S(=O)(=O)c2ccc(Cl)cc2)c1 | -15.3 | -2.8 | 2.1 | 14.4 | 2.2%
O=C(CSCc1ccc(Cl)cc1Cl)Nc1ccc(O)cc1C(=O)O | 11.9 | / | / | -20.5 | /
CC1(C)CC(=O)C(C=Nc2ccc(O)c(N=CC3=C(O)CC(C)(C)CC3=O)c2)=C(O)C1 | -1.7 | / | -0.7 | -5.0 | -4.3%
O=C(COC(=O)c1ccc2c(c1)C(=O)N(Cc1ccncc1)C2=O)Nc1cccc2ccccc12 | 4.5 | / | 1.6 | 0.0 | 0.3%
CC(NC(=O)c1cccnc1)C(c1cccs1)N1CCN(c2ccccc2F)CC1 (stereo unspecified) | 18.0 | / | / | 0.9 | 3.3%
COc1ccc(N2CC(C(=O)Nc3nc4ccc(S(C)(=O)=O)cc4s3)CC2=O)cc1 (stereo unspecified) | 5.1 | / | / | -10.5 | /
O=C(CN1C(=O)COc2ccc(Cl)cc21)NC1CC1 | -12.6 | / | / | -0.1 | /
OCCN1CCN(CC(O)COc2ccc(-c3ccccc3)cc2)CC1 (stereo unspecified) | -16.3 | -23.1 | -29.2 | 2.2 | 5.5%
CCCCNCCCOc1cc(Cl)ccc1Cl | 3.7 | -18.4 | -2.4 | 5.2 | /
O=Cc1c(-c2ccc(F)cc2)nc2ccccn12 | -4.9 | / | 6.8 | 2.7 | -0.6%
O=C(O)CSc1ncnc2sc3c(c12)CCC3 | -1.8 | -26.8 | 14.2 | 1.0 | /
COc1ccc(C(=O)O)cc1S(=O)(=O)Nc1ccc(C)cc1 | -0.7 | / | 2.3 | -3.3 | 3.1%
Cc1c(C(=O)NNS(=O)(=O)c2ccccc2)sc(=S)n1C | 5.9 | -5.1 | -7.0 | -4.8 | 3.8%
COc1ccccc1-n1nnnc1SCC(=O)N1CCCC1=O | -25.9 | / | / | -0.6 | /
CCCCn1nc(NC(=O)CC)c2cc3cc(OC)ccc3nc21 | 3.5 | / | / | -80.9 | /
COc1ccc([C@@H]2[C@@H]3C(=O)N(C(C)(C)C)C(=O)[C@@H]3[C@]3(CC(C)C)C(=O)N(c4ccccc4)C(=O)N23)cc1 | -2.9 | / | / | 2.7 | /
Cc1cnc(NC(=O)Cc2ccccc2Cl)s1 | -3.2 | / | / | -0.5 | /
CN(C)C(=O)Cn1cnc2c(cnn2-c2ccc(F)cc2)c1=O | -0.1 | / | / | -0.5 | /
CCN(CC)CCn1c(=N)n(CC(=O)c2ccc(Br)s2)c2ccccc21 | -3.3 | / | / | -0.2 | 0.7%
O=C(Nc1ccc(C2CCCCC2)cc1)C1CCN(c2ncccn2)CC1 | -5.3 | / | / | -3.2 | 2.3%
Cc1cc(C)cc(NC(=S)Nc2ccc(Cl)c(Cl)c2)c1 | 83.7 | / | -23.2 | 11.2 | ?
O=C(NCCCN1CCOCC1)c1ccc(CS(=O)(=O)Cc2ccc(Cl)cc2)o1 | -3.5 | -19.8 | 9.0 | 3.1 | 2.9%
COc1ccc(S(=O)(=O)N2CCC3(CC2)OCCN3S(=O)(=O)c2ccc(OC)cc2)cc1 | -15.2 | / | / | -1.3 | /
O=C(/C=C/c1ccco1)NCc1ccco1 | -9.5 | / | / | 0.0 | -5.7%
N#CCC(=O)N/N=C/c1ccc(SCC(=O)Nc2ccccc2)o1 | 11.4 | / | 1.2 | 7.3 | -5.5%
CSc1nc(C)nc(C2CC2)c1C#N | -3.0 | / | / | 4.6 | -12.9%
CC1=CCC2C(=O)N(c3cccc(C(=O)N(C)C4CCCCC4)c3)C(=O)C2C1 (stereo unspecified) | -2.3 | -40.2 | 3.0 | -0.7 | -3.1%
CCCCNC(=O)Cc1c(O)c2ccccc2[nH]c1=O | -7.7 | -23.7 | 2.2 | 1.4 | -3.5%
Cc1ccc(NC(=O)C2CCN(C(=O)NC3CCCCC3)CC2)cc1 | 23.4 | -2.9 | -0.7 | -3.6 | 1.8%
C/C(=C\c1cc(C(=O)O)c(C)o1)CO | ? | -6.8 | 1.0 | 4.7 | -8.9%
CC(=O)NCc1ccc(S(=O)(=O)N2CCCN(C)CC2)cc1 | -3.2 | / | / | -2.0 | /
Cc1ccccc1CNC(=O)c1ccccc1N | 2.2 | -12.5 | 2.7 | 1.0 | 3.6%
CCOc1ccc(S(=O)(=O)N2CCCC(C(=O)NCc3ccncc3)C2)cc1 (stereo unspecified) | -2.9 | / | / | 1.5 | /
CC1(C)CC(=O)C2=C(C1)N(C1CCCCC1)C(=O)C2(O)C(F)(F)F (stereo unspecified) | -9.1 | -1.1 | 1.3 | 0.3 | -0.7%
CC1CN(CCCCOc2ccc(C(C)C)cc2)CC(C)O1 (stereo unspecified) | -0.8 | -19.5 | -11.5 | / | -5.0%
CC(C)CC(OC(=O)c1cccs1)C(=O)NCC1CCCO1 (stereo unspecified) | -7.2 | -1.2 | 7.6 | -0.2 | -10.3%
CS/C(=N\S(=O)(=O)c1cccs1)Nc1cccc(Cl)c1C | 0.6 | -30.4 | -13.4 | 7.0 | -4.7%
CCOC(=O)c1cccc(NC(=O)c2cc(C)nn2-c2ccccc2)c1 | 2.8 | / | / | 3.6 | /
CC1=C(C(N)=O)C(c2cccnc2)n2nc(-c3cccc(Cl)c3)nc2N1 (stereo unspecified) | 5.4 | -43.5 | 5.0 | -1.2 | -9.9%
COc1ccc(NC(=O)C2CCCN(c3cc(C)nc4ncnn34)C2)cc1 (stereo unspecified) | -13.2 | / | 0.8 | -0.5 | 5.1%
Cc1csc(N/N=C/c2ccc(O)c([N+](=O)[O-])c2)n1 | -0.9 | -22.1 | 1.2 | 2.0 | 0.3%
Clc1ccc(-c2cc(-c3ccccn3)on2)c(Cl)c1 | 4.2 | / | / | 0.7 | 4.7%
O=C(N/N=C/c1c[nH]c2ccccc12)c1sc2ccccc2c1Cl | 1.4 | -33.4 | 4.3 | -0.7 | 1.2%
CCOc1ccccc1C(=O)Nc1ccccc1-c1ccccc1 | 7.7 | -7.2 | -11.9 | 18.9 | 14.0%

Compounds shown so far that contain a tert-butyl group:
SMILES | Mtb betalactam | YopH inh | Arbovirus anti | RecA splice inh | Mtb H37Rv | others
Cc1ccc([N+](=O)[O-])cc1NC(=S)NC(=O)CC(C)(C)C | 41.3 | -30.4 | 8.9 | 0.9 | 11.7%
COc1ccc([C@@H]2[C@@H]3C(=O)N(C(C)(C)C)C(=O)[C@@H]3[C@]3(CC(C)C)C(=O)N(c4ccccc4)C(=O)N23)cc1 | -2.9 | / | / | 2.7 | /

No new results follow: an excerpt of the list.
SMILES | Mtb betalactam | YopH inh | Arbovirus anti | RecA splice inh | Mtb H37Rv | others
N#CCC(=O)N/N=C/c1ccc(SCC(=O)Nc2ccccc2)o1 | 11.4 | / | 1.2 | 7.3 | -5.5%
CSc1nc(C)nc(C2CC2)c1C#N | -3.0 | / | / | 4.6 | -12.9%

(further entries)
SMILES | Mtb betalactam | YopH inh | Arbovirus anti | RecA splice inh | Mtb H37Rv | others
O=C(NNC(=S)Nc1ccccc1)c1cc(Br)ccc1Cl | -8.6 | / | / | 5.6 | /
O=C1N=C(N2CCOCC2)SC1=C1CCCCC1 | -0.4 | -18.3 | 0.5 | -0.1 | -6.0% | Arbovirus anti repeat=-2.7
Cc1ccc(C2(C)NC(=O)N(Cc3c(C)noc3C)C2=O)cc1 (stereo unspecified) | -3.7 | -27.6 | -2.1 | 1.0 | -0.8%
COc1cc(/C=N/NC(N)=O)cc(Br)c1OCc1ccccc1C | -3.1 | -29.4 | 5.3 | -2.1 | 2.0%
CN1CCN(Cc2cn(C)nc2-c2ccccc2F)CC1c1ccccc1 (stereo unspecified) | 14.2 | / | -4.2 | 2.1 | 3.6%
O=C(O)CCn1cc(C=C2C(=O)NC(=O)NC2=O)c(-c2cc3ccccc3oc2=O)n1 | 7.6 | / | 7.2 | -7.8 | 2.7%
COc1ccc2oc(-c3ccccc3)c(C(=O)O)c2c1 | 4.0 | / | / | -6.5 | /
CC(=O)N1N=C(C)CC1c1ccc(O)cc1 (stereo unspecified) | -4.5 | -25.0 | -6.4 | -1.4 | 1.8%
O=C(CCn1c(=O)sc2ccccc21)NCc1ccc2c(c1)OCO2 | -11.4 | -7.2 | -8.9 | -1.0 | -9.0%
CCOC(=O)c1oc2ccc(Br)cc2c1NC(=O)CN1CCN(C)CC1 | -8.8 | 3.4 | -17.8 | / | 6.9%
Cc1sc2ncnc(SCC(=O)N3CCCC(C(F)(F)F)C3)c2c1C (stereo unspecified) | ? | / | / | 2.3 | /
Cc1ccc(SCC(=O)Nc2ccccc2C(=O)O)cc1 | 26.3 | -45.4 | 27.3 | 2.7 | 0.4%
C=CCN1C(=O)NC(=O)/C(=C/c2cccn2C)C1=O | 28.4 | -30.3 | -1.5 | 0.7 | -7.9%
COc1ccc(S(=O)(=O)Nc2cc(C)on2)cc1 | -2.3 | / | / | 4.5 | /
COP(=O)(OC)c1nc(-c2cccc3ccccc23)oc1NCc1ccccc1 | 9.7 | -23.9 | -16.8 | -11.1 | 5.5%
CCCc1cc(=O)[nH]c(SCC(=O)Nc2nc(-c3ccccc3)cs2)n1 | -6.9 | / | -9.4 | 9.9 | 1.2%
CN(Cc1ccccc1Cl)C(=O)C1CCC(=O)N(CCc2cccc(F)c2)C1 (stereo unspecified) | -13.1 | / | / | 0.1 | /
COc1cccc(C(=O)OCC(=O)NC(C)CCc2ccccc2)c1O (stereo unspecified) | 5.9 | / | / | -2.4 | /
Cc1ccc(C2=[N+]([O-])C3(CCCCC/C3=N\NC(N)=O)N(O)C2(C)C)o1 (stereo unspecified) | -12.5 | -15.9 | 0.5 | -5.1 | /
O=C(O)c1cccc(N/N=C/c2cccs2)c1 | 5.8 | -18.9 | 6.1 | -2.1 | 1.8%
COc1c(Cl)ccc(Cl)c1C(=O)OCC(=O)O | 6.4 | -34.3 | 4.1 | 1.7 | 12.7% | Arbovirus anti repeat=-1.9
Cc1cc(C)nc(NS(=O)(=O)c2ccc(NS(=O)(=O)c3ccc(C#N)cc3)cc2)n1 | ? | / | / | 2.0 | /
N#Cc1c(-c2ccccc2)nc(SCc2cccc(C(F)(F)F)c2)[nH]c1=O | -8.2 | / | / | -5.0 | /
CCCCC(CC)C(=O)NCc1ccccc1OC (stereo unspecified) | 1.6 | -18.0 | 3.6 | 0.6 | -6.8%
Oc1c(C=Nc2ccccc2Cl)[nH]c2ccccc12 | -6.7 | / | / | 9.9 | 0.1%
